Compound activity: PubChem, several laboratories
Sa ugtP lethal = growth inhibition of S. aureus ugtP deletion strain; S. aureus RN4220 ugtP deletion, OD600 growth, 16 h; some inactives read as strong as hits; AID 1259309; 0.54% of 330,000 active; growth inhibition, % (concentration not given with the values);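 active means z-score under -3 and OD600 up to 0.15 on both plates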;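 further: plate controls were untreated wells for no effect and antibiotic for full effect; wells of about 80 µL received 100 nL stock; the first replicate is given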
BJeLR lethal = kills HRASV12-expressing BJeLR cells; BJeLR (HRASV12) viability, CellTiter-Glo ATP luminescence, 48 h; reference of the scale not given here; inhibition, % (no concentration beside the values); 0.17% of 300,000 active; AID 1554;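 active means replicate mean above 50%; inconclusive means above 50% but judged a plate artefact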;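 further: 50 nL library stock added to about 25 µL; numbers are from one replicate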
PrP 5UTR inh = inhibition of PrP 5' UTR reporter expression; inhibition, % (concentration not given with the values); cell-based PrP 5' UTR mRNA reporter, plate reader; 0.35% of 340,000 active; AID 488862;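 active means every replicate at 50% or more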;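 further: 0 = median of the neutral control wells; tested in H4 reporter cells; numbers are from one replicate; inactives centre near -14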
RN4220 kill = S. aureus RN4220 growth inhibition. inhibition, % (no concentration beside the values). 0.33% of 330,000 active. OD600, 16 h;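 active means z-score of -3 or lower and OD600 up to 0.18 on both plates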;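 further: plate controls were untreated cells for no effect and reference antibiotic for full effect; stock transfer was 100 nL into about 80 µL; one replicate is shown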
Mtb hypoxia inh = Mtb hypoxia fluorescent reporter inhibition | M. tuberculosis hypoxia-regulated fluorescent reporter, fluorescence | fluorescence inhibition, % (no concentration beside the values) | 0.1% of 300,000 active;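 active means 35 to 45% if threefold the growth effect, above 45% if 1.5-fold the growth effect; inactive means the rest, general growth blockers included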;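 further: wells of about 50 µL received 100 nL stock; 0% = vehicle wells and 100% = reference inhibitor wells; whole bacteria with a GFP reporter of the hypoxia response; strong numbers were not always called active; many hits fall short of the cut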
Autofluor counter = flagged as autofluorescent in microsphere protease counterscreen. compound autofluorescence counterscreen, microsphere flow cytometry; active compounds read high. fluorescence intensity (test concentration not listed). 3.1% of 360,000 active. AID 624483;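 active means at least 3 SD above the mean of all compounds, about 16000 in these data; inconclusive means too few beads counted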;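 further: 100 nL of 1 mM stock went into each well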
Mtb hypoxia inh growth = also measured in Mtb hypoxia inh; calls as there; growth inhibition, %; measured here: M. tuberculosis growth (absorbance);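 0% = vehicle and 100% = reference antibiotic; read after six days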
* = called active by the depositor; ? = inconclusive; . = no result given.

SMILES | Sa ugtP lethal | BJeLR lethal | PrP 5UTR inh | RN4220 kill | Mtb hypoxia inh | Mtb hypoxia inh growth | Autofluor counter
O=C(COC(=O)c1cccnc1Nc1ccccc1F)NCCN1C(=O)CSC1=O | -2 | 12 | 12 | -3.7 | 3 | -4 | 4198
O=C(O)CCn1ncc2ccccc2c1=O | 16 | 4 | -42 | 4.3 | 9 | -9 | 5457
CCS(=O)(=O)Nc1ccc(C(=O)c2ccccc2)cc1 | 13 | 8 | -15 | 12 | . | . | 3543
CCN1C(=O)/C(=C2/Sc3ccc(OC)cc3N2C)SC1=Nc1cccc(O)c1 | -13 | -7 | -25 | 5.5 | 15 | 11 | 11501
CCN(CCCNC(=O)CNC(=O)Cn1cnc2ccccc2c1=O)c1ccccc1 | 1 | . | -16 | 4.0 | . | . | 4711
COc1ccc(OCC(=O)Nc2nc3ccc(NC(C)=O)cc3s2)cc1 | 3 | 1 | -31 | 1.7 | 3 | 5 | 4063
CCc1c(C)sc(NC(=O)C2CCCCC2C(=O)O)c1C(N)=O (configuration not stated) | 2 | 4 | -5 | 6.2 | . | . | 3732
COc1ccc2sc(N(CCN(C)C)C(=O)/C=C/c3cccs3)nc2c1 | 11 | -5 | -18 | 0.3 | 2 | 4 | .
c1ccc2c(c1)OCC(c1nn3cnnc3s1)O2 (configuration not stated) | 3 | 9 | -8 | 6.2 | 8 | -10 | ?
O=S(=O)(NCCNS(=O)(=O)c1ccc(F)cc1)c1ccc(F)cc1 | 6 | 0 | -16 | 0.8 | 3 | 12 | 9758
Cc1ccc(C(O)(c2ccc(C)c(C)c2)C2CN3CCC2CC3)cc1C (configuration not stated) | -9 | 4 | -13 | -7.8 | -1 | 10 | 3033
COC(=O)CC(NC(=O)C1CC1)c1ccc2c(c1)OCO2 (configuration not stated) | 3 | -11 | -22 | 3.7 | 4 | 0 | 3960
Cn1c(O)c(C=NCCN2CCN(C(=O)Nc3ccccc3)CC2)c(=O)n(C)c1=O | 3 | -13 | . | 0.1 | 2 | 3 | .
COc1ccc(NC(=O)/C(C#N)=C/c2ccc(OCCN3CCOCC3)c(OC)c2)c(OC)c1 | 8 | -8 | -13 | 0.8 | 12 | -10 | 4327
O=C(Nc1ccc(S(=O)(=O)N2CCOCC2)cc1)c1ccc(Cl)s1 | -4 | -2 | -31 | 1.1 | 5 | 5 | 10826
CC1CCN(C(=O)C2CCN(S(=O)(=O)c3cc(Cl)ccc3Cl)CC2)CC1 | 10 | -3 | -18 | 2.4 | 18 | 7 | 4658
Cc1ccc(C(=O)N/N=C\c2ccc[nH]2)cn1 | . | 1 | -20 | . | . | . | 4699
COC(CNc1nc(SC)nc2sc3c(c12)CCN(C)C3)OC | 9 | -2 | -19 | 5.9 | 6 | 6 | 3423
COc1nc(N(C)C)nc(N2CC(=O)N(CCNS(=O)(=O)c3ccc(C)cc3)C2=N)n1 | -2 | -9 | -17 | 2.2 | 5 | 2 | 8099
Nc1ccc2nc(SCC(=O)c3ccccc3)sc2c1 | 13 | 16 | -33 | -4.5 | 6 | 14 | 3858

Results in PrP 5UTR inh (two entries from above):
SMILES | PrP 5UTR inh
O=C(COC(=O)c1cccnc1Nc1ccccc1F)NCCN1C(=O)CSC1=O | 12
CCS(=O)(=O)Nc1ccc(C(=O)c2ccccc2)cc1 | -15

The results go on:
SMILES | Sa ugtP lethal | BJeLR lethal | PrP 5UTR inh | RN4220 kill | Mtb hypoxia inh | Mtb hypoxia inh growth | Autofluor counter
CCC(=O)Nc1nc2ccc3nc(C)sc3c2s1 | 4 | -7 | -36 | 3.0 | -1 | 3 | 5814
CC(=O)Nc1ccc(NC(=O)Cc2ccc(S(=O)(=O)N3CCCCC3)cc2)cc1 | 3 | . | 2 | 2.1 | -7 | 3 | 6425
CCC1Sc2ccc(S(=O)(=O)CCC(=O)Nc3c(Cl)cc(OC)cc3OC)cc2NC1=O (configuration not stated) | 4 | 9 | 7 | 7.2 | -3 | 0 | 4300
CC(C)C1S/C(=N/N=C/c2ccco2)NC1=O (configuration not stated) | . | -4 | -27 | . | . | . | 8344
Nc1cc(=O)[nH]c(SCC(=O)Nc2cccc(S(=O)(=O)N3CCCCCC3)c2)n1 | 4 | . | -14 | 3.8 | 10 | 8 | 2832
O=C(c1ccc(=O)oc1)N1CCC(C(O)(c2ccccc2)c2ccccc2)CC1 | 1 | 3 | -16 | 0.6 | 14 | 11 | 3777
CC(=O)Nc1sc(NN=Cc2ccccc2F)nc1-c1ccc(C)cc1 | 1 | . | . | -0.2 | 8 | 0 | .
O=C(NN=Cc1cn(-c2ccccc2)nc1-c1cccs1)c1ccc(Cl)cc1 | -19 | . | . | -3.9 | -8 | 2 | .
c1ccc(C(c2nnnn2Cc2cccs2)N2CCN(C3CCCC3)CC2)cc1 (configuration not stated) | 0 | 4 | -24 | 2.1 | . | . | 4138
O=C(Cc1ccccc1)N/N=C/c1ccc(OC(=O)/C=C\c2ccco2)cc1 | . | 4 | -25 | . | . | . | 4208
O=C(CN1CCCCC1)N1c2ccccc2Oc2ccccc21 | -3 | -7 | -27 | -11 | 14 | 17 | 2848
CCOC(=O)C1CCCN(C(=O)c2ccccc2NC(=O)C2=C(C)OCCS2)C1 (configuration not stated) | 2 | 10 | -8 | -1.2 | -3 | -6 | 6369
C=CCn1c(=O)[nH]c2cc(C(=O)N3CC=C(c4ccccc4)CC3)ccc2c1=O | -6 | 4 | -11 | -6.3 | -8 | -9 | .
CC(=NNC1=NCCN1)c1ccccc1 | 2 | . | . | -1.0 | -3 | 7 | .
COc1ccc(-c2cc(=O)oc3cc(OCC(=O)NCCCn4ccnc4)ccc23)cc1 | -2 | 1 | -13 | 3.2 | . | . | 5346
CC(C)(C)C(=O)OCC12CCC(O1)C1(C)C(=O)OCC21 (configuration not stated) | 3 | -14 | -27 | 2.1 | 7 | -5 | 2581
CN(C)CCOc1cccc(Br)c1 | 9 | . | -6 | -0.8 | 11 | 9 | 3859
COc1ccc(Cl)cc1NS(=O)(=O)c1cccc2cccnc12 | -6 | -2 | -34 | -3.1 | 7 | 4 | 3651
Cc1cccc(NC(=O)CCN2CCCC(C)C2)c1 (configuration not stated) | 6 | 2 | -21 | 5.7 | 15 | 14 | 4199
Cc1ccc(C2(CCNC(C)c3cccs3)CCOC(C(C)C)C2)cc1 (configuration not stated) | 3 | 9 | -17 | 0.4 | 17 | 9 | 4610
Cc1cc(C)cc(Nc2ncc3c(n2)CC(c2ccco2)CC3=O)c1 (configuration not stated) | -7 | 5 | -9 | -0.7 | 2 | 8 | 4211
COc1cccc(CC2(CO)CCCN(CC3=Cc4cc(OC)ccc4OC3)C2)c1 (configuration not stated) | -1 | -8 | -13 | 6.0 | 12 | 3 | 6925
CC(CC(=O)Nc1ccccc1Br)=NNC(=O)C(=O)N1CCCC1 | 3 | . | . | 3.6 | 4 | 8 | .
Cc1nnc(SCC(=O)Nc2ccccc2NC(=O)CSc2nnc(C)s2)s1 | -1 | -5 | -7 | -1.6 | . | . | 3848
CC(=O)NCC(=O)NC1CC(C)(C)Cc2c1cnn2-c1ccccc1 (configuration not stated) | 4 | -2 | -8 | 2.3 | -3 | 7 | 2922
Cc1cc[n+](CC(=O)Nc2cccc(C)c2)cc1 | -3 | -14 | -5 | -2.2 | -2 | 1 | 3403
O=C1NC(=O)C2(CCCCCCCCCCC2)N1 | 5 | 5 | -18 | 1.2 | 4 | 0 | 6183
COc1ccc(C)cc1NC(=O)C(Sc1nnc(-c2ccncc2)n1-c1ccc(Cl)cc1)c1ccccc1 (configuration not stated) | -3 | -5 | -27 | 0.1 | 7 | 8 | 2216
C=CCNC(=O)C1CC(=O)N(c2ccc(OCC(=O)Nc3cccc(OC)c3)cc2)C1 (configuration not stated) | 5 | 4 | -21 | 3.0 | 2 | 10 | 11637
CCOC(=O)c1sc(=S)n(-c2cc(OC)ccc2OC)c1N | 17 | 2 | -26 | 2.8 | . | . | 2436
CCOC(=O)c1ccc(N2C(=O)CC(N3CCC(C(N)=O)(N4CCCCC4)CC3)C2=O)cc1 (configuration not stated) | 8 | . | -7 | 5.6 | 8 | 4 | 4334
O=C(CCCc1ccccc1)Nc1ccnn1C1CCN(Cc2ccc(CO)o2)CC1 | -8 | 11 | 9 | -3.5 | -2 | -7 | ?
O=C(Cc1cccs1)NCCCc1ccccc1 | 2 | 11 | -17 | 3.9 | 4 | 14 | 4535
CCc1ccc(NCCC(=O)c2ccc(Cl)cc2)cc1 | 12 | -2 | -17 | 4.7 | 12 | 5 | 7029
CC(c1ccccc1)N(C)C(=O)CN1CCN(S(=O)(=O)c2ccc3c(c2)OCCCO3)CC1 (configuration not stated) | 7 | . | . | 5.3 | 10 | 12 | 5719
COc1ccccc1Nc1nc(-c2cccs2)cs1 | 47 | 2 | -107 | -9.7 | 15 | -3 | 5005
Cc1ccc(C(=O)C(OC(=O)c2cnccn2)c2ccccc2)cc1 (configuration not stated) | 12 | 2 | -26 | 6.0 | 5 | -5 | 2093
COCCn1c(SCC(=O)c2cccc(OC)c2)nnc1-c1ccco1 | -4 | -5 | -5 | 1.8 | . | . | 3334
O=C(NCc1ccccn1)C(=O)Nc1cc2c3c(c1)CC(=O)N3CCC2 | 2 | 16 | -6 | 1.9 | 3 | 8 | .
c1ccc(-c2noc(-c3ccc4ccccc4c3)n2)cc1 | 0 | 4 | 46 | -4.0 | 18 | 6 | 8174

One compound at a time, from the list above. Screens in order: Sa ugtP lethal	BJeLR lethal	PrP 5UTR inh	RN4220 kill	Mtb hypoxia inh	Mtb hypoxia inh growth	Autofluor counter
`O=C1NC(=O)C2(CCCCCCCCCCC2)N1` is listed with 5	5	-18	1.2	4	0	6183
`COc1cccc(CC2(CO)CCCN(CC3=Cc4cc(OC)ccc4OC3)C2)c1` (configuration not stated) is listed with -1	-8	-13	6.0	12	3	6925
`O=C(NCc1ccccn1)C(=O)Nc1cc2c3c(c1)CC(=O)N3CCC2` is listed with 2	16	-6	1.9	3	8	.
`CC(=O)NCC(=O)NC1CC(C)(C)Cc2c1cnn2-c1ccccc1` (configuration not stated) is listed with 4	-2	-8	2.3	-3	7	2922

The listing continues.
SMILES | Sa ugtP lethal | BJeLR lethal | PrP 5UTR inh | RN4220 kill | Mtb hypoxia inh | Mtb hypoxia inh growth | Autofluor counter
O=C(CCNS(=O)(=O)c1cccs1)NCc1ccco1 | 1 | 2 | -9 | 6.1 | 9 | 11 | 4257
COc1cc(C(=O)NCc2nnc(SCC(=O)Nc3cccc(C(F)(F)F)c3)o2)cc(OC)c1OC | 0 | -10 | -4 | -2.2 | 2 | -12 | 6353
Nc1c(N(Cc2ccco2)C(=O)c2ccccc2F)c(=O)[nH]c(=O)n1Cc1ccccc1 | 4 | . | -32 | 2.7 | -2 | 0 | 5473
Cc1ccccc1NC(=O)C(=O)NCCCN1CCOCC1 | 11 | 5 | -21 | 9.3 | 15 | 3 | 4655
O=C(O)C(O)(c1ccccc1)C(O)c1ccccc1 (configuration not stated) | 1 | -3 | -22 | 2.0 | -3 | 4 | 3644
CCC/C=N/NC(=O)c1cc(Br)ccc1O | . | -2 | -20 | . | . | . | 2524
Cc1cc2ccccc2c(=O)n1CC(=O)NCC(=O)N1CCN(c2ccccc2F)CC1 | -3 | 4 | -1 | -0.7 | -8 | 12 | 6717
O=C1c2ccccc2S(=O)(=O)c2cc(C(=O)N3CCN(c4ccc(Cl)cn4)CC3)ccc21 | 13 | 2 | -30 | 9.6 | 4 | 5 | 3716
O=C(CSc1ccc(-c2ccc(F)cc2)nn1)N1CCCCC1 | -14 | -12 | -44 | -1.7 | 0 | 11 | 10605
Cc1cc(NC(=O)Cn2nc(C(F)(F)F)c3c2CCCC3)no1 | 1 | -7 | -18 | -1.1 | . | . | 2793
COc1ccccc1NC(=O)C(O)C(O)C(=O)Nc1ccccc1OC (configuration not stated) | -4 | -8 | -18 | 6.6 | -2 | 2 | 4368
CCCCCCN=C1CC(C)(C)CC(=O)/C1=C(\O)CCC | -4 | . | . | 2.0 | 9 | 13 | .
COc1ccccc1OCCNC(=O)CNC(=O)c1ccc(Cl)c(Cl)c1 | 4 | -10 | 2 | -1.6 | 1 | -16 | 6867
CCc1nn2c(NCCOC)cc(C)nc2c1-c1ccc(F)cc1 | 3 | 3 | -24 | 5.7 | -8 | 5 | 3879
S=C(c1ccc(-c2cccc(Cl)c2)o1)N1CCCCC1 | 4 | -4 | -114 | 13 | 6 | 0 | 5026
COc1cccc(CN2CCN(Cc3ccc4cccc(F)c4n3)CC2CCO)c1 (configuration not stated) | -7 | -6 | -11 | 0.1 | -12 | 3 | 3950
